Assay outcomes deposited in PubChem BioAssay by National Center for Advancing Translational Sciences (NCATS).
Cruzain inh noDet: blocks cruzain activity in detergent-free assay; P25779; purified cruzain, Z-FR-AMC fluorescence, no detergent; hit rate 2.3% among 200,000; Potency, µM, for the others: max response, negative = inhibition, usual class: inhibitors; AID 1476;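 further: plate controls were enzyme without inhibitor for no effect and buffer without enzyme for full effect; nearly all actives have a fitted effect of over 40% in size; top concentration of the series not given in the record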
Target sequence (P25779 123-467 limits assumed): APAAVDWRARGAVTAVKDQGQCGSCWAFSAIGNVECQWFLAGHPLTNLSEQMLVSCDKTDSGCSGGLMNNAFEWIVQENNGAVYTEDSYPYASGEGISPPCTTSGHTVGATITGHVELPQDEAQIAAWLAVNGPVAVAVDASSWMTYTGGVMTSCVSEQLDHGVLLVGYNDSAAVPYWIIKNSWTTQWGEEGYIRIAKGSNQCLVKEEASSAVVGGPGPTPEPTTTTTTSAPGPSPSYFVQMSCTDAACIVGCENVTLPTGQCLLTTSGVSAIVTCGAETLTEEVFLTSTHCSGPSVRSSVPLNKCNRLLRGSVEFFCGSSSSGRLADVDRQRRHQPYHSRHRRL
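Detergent-free condition (0.00005% Triton X-100) in acetate buffer pH 5.5 with DTT. 1.5 nM enzyme and compound were pre-mixed 15 min, then 2 uM Z-FR-AMC substrate added; reaction progress from fluorescence change between first and third reads (60 s).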
StopGo reporter: FMDV 2A StopGo reporter, luciferase signal; human cells with a luciferase reporter of 2A StopGo recoding; control for the full effect not named in the record; Potency, µM (top dose mostly 57.9 µM), inactives show top-dose signal change, negative = less light; hit rate 1.2% among 410,000; AID 1159524; active = well fitted falling curve with a large enough effect; inconclusive = small, poorly fitted or top-dose-only effect; inactive = no such curve, though single readings can be large or run the other way; tested in HEK293T cells; further: on the % scale 0 is the no-effect control and ±100 the full control effect; nearly all actives have a fitted effect of over 45% in size; luciferase light after 4 h
Cruzain inh Det: cruzain (T. cruzi) inhibition with detergent | P25779 | purified cruzain, Z-FR-AMC fluorescence, 0.01% Triton | Potency, µM, inactives show max response, negative = inhibition, actives largely listed as inhibitors | hit rate 0.43% among 200,000 | AID 1478;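 further: plate controls were neutral wells for no effect and buffer without enzyme for full effect; nearly all actives have a fitted effect of over 40% in size; top concentration of the series not given in the record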
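Detergent-containing run (0.01% Triton X-100) in acetate buffer pH 5.5 with 5 mM DTT: enzyme at 1.5 nM final, 15 min compound preincubation at room temperature, then 2 uM Z-FR-AMC substrate. Activity taken as 60 s fluorescence increase at 360/450 nm.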
SARS PLP yeast: SARS-CoV PLP inhibition in yeast; AID 485353; Potency, µM (doses to about 32.9 µM), inactives show at the highest dose activity, positive = growth rescue; S. cerevisiae expressing SARS-CoV PLpro, growth rescue; control for the full effect not named in the record; hit rate 0.19% among 330,000; active means well fitted rising curve with a large enough effect; inconclusive means small, poorly fitted or top-dose-only effect; inactive means no such curve, though single readings can be large or run the other way; further: 0% is about no effect; nearly all actives have a fitted effect of over 55% in size; growth read by luminescence after 48 h
RE007 growth inh: less growth of the S. pombe RE007 Vpr strain; S. pombe RE007 Vpr strain, BacTiter-Glo ATP luminescence, 24 h; control for the full effect not named in the record; Potency, µM (top dose mostly 92.2 µM), inactives show at the top dose activity change, negative = less growth; hit rate 0.21% among 360,000; active = well fitted falling curve with a large enough effect; inconclusive = small, poorly fitted or top-dose-only effect; inactive = no such curve, though single readings can be large or run the other way;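 further: on the % scale 0 is the no-effect control and ±100 the full control effect; nearly all actives have a fitted effect of over 50% in size; the assay follows cell death caused by Vpr and the record does not say whether a fall means rescue or toxicity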
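Fission yeast strain RE007, carrying one chromosomally integrated HIV-1 vpr copy, was seeded at OD 0.01 in PMG+AL medium with 23 nL pinned compound. After 24 h at 30 °C and 99% humidity, viability was read by BacTiter-Glo luminescence.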
LASV entry inh: blocks Lassa virus binding to or entry into cells. Potency, µM (top dose mostly 37.9 µM), for inactives: at the highest dose activity change, negative = inhibition, hits mostly inhibitors. hit rate 1.2% among 300,000. Lassa virus pseudotype entry inhibition, cell reporter; control for the full effect not named in the record; active means well fitted inhibition curve with a large enough effect; inconclusive means small, poorly fitted or top-dose-only effect, or effect the other way; inactive means flat fitted curve, though single readings scatter; tested in HEK293 cells; further: on the % scale 0 is the no-effect control and ±100 the full control effect; nearly all actives have a fitted effect of over 50% in size; luciferase read-out
Marburg entry inh: blocks Marburg virus binding to or entry into cells | Marburg virus pseudotyped entry inhibition, cell reporter; control for the full effect not named in the record; about a third of the inactives were read at about 46 µM | Potency, µM (top dose mostly 37.8 µM), inactives show at the highest dose activity change, negative = inhibition, actives largely listed as inhibitors | hit rate 1.8% among 300,000 | AID 540276; active = well fitted inhibition curve with a large enough effect; inconclusive = small, poorly fitted or top-dose-only effect, or effect the other way; inactive = flat fitted curve, though single readings scatter; tested in HEK293 cells; about a fifth of its hits are not listed in these tables; further: on the % scale 0 is the no-effect control and ±100 the full control effect; luciferase read-out
NS1 function inh: inhibitors of influenza NS1 protein function. AID 2326. hit rate 0.4% among 270,000. Potency, µM (highest dose often 46.1 µM), inactives show at the highest dose activity, positive = more growth. S. cerevisiae slowed by influenza A NS1, growth recovery by OD600; active means well fitted rising curve with a large enough effect; inconclusive means small, poorly fitted or top-dose-only effect; inactive means no such curve, though single readings can be large or run the other way; further: nearly all actives have a fitted effect of over 50% in size
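A cell-based growth assay was used: compounds that relieve NS1-induced slow growth of budding yeast raise OD600. Assay medium was yeast nitrogen base with ammonium sulphate and -URA supplement, pH 6.0, with 2% galactose.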
Starred values were filed as active, the others as inactive; & = joins results of further samples; [ ] = another dose, or the depositor's remark. Unless noted, the call rests on the fitted dose curve; in most records, active means well fitted curve in the direction sought with a large enough effect; inconclusive means small, poorly fitted or top-dose-only effect, or another doubt; inactive means no such curve, though single readings can be large; an effect the other way counts as inactive or inconclusive. Potency means the concentration at half of the fitted maximal effect.

COc1cccc(N2CCN(C(=O)c3ccc4nc(N5CCC(C)CC5)sc4c3)CC2)c1 was read as Cruzain inh noDet 11%, StopGo reporter inconclusive, Cruzain inh Det -6.2%, SARS PLP yeast 0%, LASV entry inh inconclusive and NS1 function inh 14%.
`C=CCNC(=S)Nc1sc2c(c1C(=O)OCC)CC(C)(CC)OC2` (stereo not drawn) gave Cruzain inh noDet 11%, StopGo reporter -15%, Cruzain inh Det -11%, SARS PLP yeast 6%, RE007 growth inh 4%, LASV entry inh -12%, Marburg entry inh -35%[46.1 µM] and NS1 function inh 5%.
For O=C1C2CCCN2C(c2cccnc2)N1c1ccc(Cl)c(Cl)c1 (stereo not drawn) the results were Cruzain inh noDet 9%, StopGo reporter 10%, Cruzain inh Det 1.1%, SARS PLP yeast -7%, RE007 growth inh -19%, LASV entry inh 1%, Marburg entry inh inconclusive and NS1 function inh -60%.
Screening CN(C)c1ccc(/C=C2/C(=O)N(c3ccc([N+](=O)[O-])cc3)N=C2N2CCOCC2)cc1 returned Cruzain inh noDet inconclusive, Cruzain inh Det -4.3%, SARS PLP yeast 2% and NS1 function inh -33%.
For COc1ccc(C2c3ccc4ccccc4c3Oc3ncn4nc(Cc5ccccc5)nc4c32)cc1OC (stereo not drawn) the results were Cruzain inh noDet -13%, StopGo reporter -18%, Cruzain inh Det -1.5%, SARS PLP yeast 1%, RE007 growth inh -13%, LASV entry inh -3%, Marburg entry inh -1% and NS1 function inh 9%.
For CCC1(C)COC2(OC1)C(=O)Nc1ccccc12 (stereo not drawn) the results were Cruzain inh noDet 5%, StopGo reporter -12%, Cruzain inh Det -0.5%, SARS PLP yeast 1%, RE007 growth inh -15%, LASV entry inh 8%, Marburg entry inh inconclusive and NS1 function inh -3%.
For O=C(NCC1CCN(Cc2ccc(F)cc2)CC1)C1CCCN(c2ncnc3c2nc2n3CCCCC2)C1 (stereo not drawn) the results were StopGo reporter -14%, SARS PLP yeast -2%, RE007 growth inh -3% and NS1 function inh -3%.
Screening O=C(CCCNC(=O)/C(=C\c1ccccc1F)NC(=O)c1ccccc1)OCc1ccccc1 returned Cruzain inh noDet -3%, Cruzain inh Det 2.2%, SARS PLP yeast 3%, RE007 growth inh -2%, LASV entry inh -2%, Marburg entry inh -17% and NS1 function inh 8%.
`Cc1nn(C)c(C)c1NC(=O)CSc1nc(Cc2ccccc2)nc2c1cnn2-c1ccccc1` gave RE007 growth inh -6%, LASV entry inh 6%, Marburg entry inh 0%&-24% and NS1 function inh 28%.
Screening CCN(CC)C(=O)c1ccccc1NC(=O)c1ccccc1 returned StopGo reporter -9%, SARS PLP yeast -5%, RE007 growth inh -6%, LASV entry inh 1%[46.1 µM] and Marburg entry inh -1%[46.1 µM].
O=C(CSc1nnnn1C1CCCCC1)N1CCCC1 was read as Cruzain inh noDet -7%, StopGo reporter 13%, Cruzain inh Det 6.6%, SARS PLP yeast 5%, RE007 growth inh -5%, LASV entry inh 8%, Marburg entry inh 3% and NS1 function inh 2%.
Screening C/C(N)=C(/C#N)C(=O)COC(=O)C1CSC2(c3ccc(F)cc3)CCC(=O)N12 (stereo not drawn) returned StopGo reporter 3%, SARS PLP yeast 3%, RE007 growth inh 2%, LASV entry inh -32%, Marburg entry inh 21% and NS1 function inh -3%.
For Cc1ccccc1NC(=O)C1CCCN1S(=O)(=O)c1ccc2c(c1)n(C)c(=O)c(=O)n2C (stereo not drawn) the results were Cruzain inh noDet 2%, StopGo reporter -21%, Cruzain inh Det -1.7%, SARS PLP yeast 5%, RE007 growth inh -14%, LASV entry inh inconclusive, Marburg entry inh -42% and NS1 function inh 12%.
Screening CC1(C)CC(NC(=O)Cc2ccccc2[N+](=O)[O-])CC(C)(C)N1 returned Cruzain inh noDet -2%, StopGo reporter 2%, Cruzain inh Det 2.0%, SARS PLP yeast 11%, RE007 growth inh 16%, LASV entry inh -1%, Marburg entry inh inconclusive and NS1 function inh -4%.
CN(C)CCCn1c(SCC(=O)Nc2nccs2)nnc1-c1ccncc1 was read as StopGo reporter 10%, SARS PLP yeast 2%, RE007 growth inh 8%, LASV entry inh 23%[46.1 µM], Marburg entry inh 16%[46.1 µM] and NS1 function inh 5%.
Screening COc1ccc(-c2[nH]ncc2-c2cnc(C)s2)c(O)c1 returned Cruzain inh noDet -1%, Cruzain inh Det 1.6%, SARS PLP yeast inconclusive, RE007 growth inh -11%, LASV entry inh -3%, Marburg entry inh -11% and NS1 function inh -25%.
`NC(=O)CI` gave Cruzain inh noDet 3%, Cruzain inh Det 5.0%, LASV entry inh -37%, Marburg entry inh 39%&39%&39%&-8%&39% and NS1 function inh -1%.
For Cn1nc(C(F)(F)F)c2cc(NC(=O)OCC(C)(C)C)sc21 the results were Cruzain inh noDet -3%, StopGo reporter -8%, Cruzain inh Det -3.4%, SARS PLP yeast -17%, RE007 growth inh -8%, LASV entry inh -2%, Marburg entry inh 3% and NS1 function inh -86%.
Screening c1ccc2[nH]c(CSc3ncnc4c3oc3ccccc34)nc2c1 returned Cruzain inh noDet 16µM*, StopGo reporter -25%, Cruzain inh Det inconclusive, SARS PLP yeast -16%, RE007 growth inh -16%, LASV entry inh -24%, Marburg entry inh inconclusive and NS1 function inh -115%.
O=C(COc1ccc2ccccc2c1)Nc1cccc2cccnc12 was read as Cruzain inh noDet -18%, StopGo reporter 9%, Cruzain inh Det -3.0%, SARS PLP yeast -5%, RE007 growth inh 20%, LASV entry inh -4%, Marburg entry inh -11%[46.1 µM] and NS1 function inh -8%.
COCCN1CCN(Cc2nc(Cc3ccc(OC)c(OC)c3)no2)CC1 was read as StopGo reporter 3%, SARS PLP yeast -1%, RE007 growth inh 15%, LASV entry inh 6%[46.1 µM], Marburg entry inh 11%[46.1 µM] and NS1 function inh 0%.
`S=c1[nH]nc(CCc2ccc(Cl)cc2)o1` gave Cruzain inh noDet -12%, StopGo reporter 0%, Cruzain inh Det -0.7%, SARS PLP yeast -20%, RE007 growth inh -2%, LASV entry inh -8%, Marburg entry inh 7%[46.1 µM] and NS1 function inh -15%.
Screening CC(=O)Nc1nnc(CCN2CCCCC2)s1 returned Cruzain inh noDet 9%, StopGo reporter 15%, Cruzain inh Det 12%, SARS PLP yeast 2%, RE007 growth inh 22%, LASV entry inh -14%, Marburg entry inh 9% and NS1 function inh 4%.
COc1ccccc1N1CCN(c2nc3ccc(C)cc3nc2-n2nc(C)cc2C)CC1 was read as Cruzain inh noDet inconclusive, StopGo reporter 24%, Cruzain inh Det -1.9%, LASV entry inh -22%[46.1 µM] and Marburg entry inh -17%[46.1 µM].
For O=C(NCC(F)(F)F)Nc1ncccn1 the results were Cruzain inh noDet -6%, StopGo reporter 4%, Cruzain inh Det 0.5%, SARS PLP yeast 3%, RE007 growth inh -1%, LASV entry inh -8%, Marburg entry inh -16% and NS1 function inh -2%.
Screening OCCC1CN(Cc2ccsc2)CCN1C1CCCC1 (stereo not drawn) returned StopGo reporter -10%, SARS PLP yeast -1%, RE007 growth inh 9%, LASV entry inh 18%[46.1 µM], Marburg entry inh inconclusive and NS1 function inh 2%.
`Cn1nnnc1SCC(=O)NC(C)(C)C` gave Cruzain inh noDet 10%, StopGo reporter -10%, Cruzain inh Det 7.4%, SARS PLP yeast 9%, RE007 growth inh -4%, LASV entry inh 10%, Marburg entry inh 8%[46.1 µM] and NS1 function inh 1%.
`CC(Sc1nnc(-c2ccccc2F)n1C1CC1)C(N)=O` (stereo not drawn) gave StopGo reporter 4%, SARS PLP yeast -4%, RE007 growth inh 2%, Marburg entry inh 14%[46.1 µM] and NS1 function inh -7%.
COC(=O)c1ccc(COC(=O)CNC(=O)C2CCCCC2)cc1 was read as StopGo reporter 0%, SARS PLP yeast inconclusive, RE007 growth inh 6%, LASV entry inh 0%[46.1 µM] and Marburg entry inh inconclusive.
Screening CC(=O)N1CCc2c(sc3c2c(=O)n(Cc2ccccc2)c(=O)n3Cc2ccccc2F)C1 returned Cruzain inh noDet -8%, StopGo reporter -29%, Cruzain inh Det -3.8% and Marburg entry inh 2%[46.1 µM].
`C/C(=N\NC(N)=S)c1ccc(Cl)s1` gave Cruzain inh noDet 0.25µM*, StopGo reporter -25%, Cruzain inh Det 0.56µM*, SARS PLP yeast 10µM*, RE007 growth inh 12%, LASV entry inh -11%, Marburg entry inh -11% and NS1 function inh -43%.
Screening Cc1ccc(CSCC(=O)N(C)CC(=O)Nc2ccccc2Cl)cc1 returned StopGo reporter -13%, SARS PLP yeast -6%, RE007 growth inh -7%, LASV entry inh -1% and Marburg entry inh -9%[46.1 µM].
Nc1ccc(NC(=O)c2ccco2)c(Cl)c1 was read as StopGo reporter -2%, SARS PLP yeast -1%, RE007 growth inh -11%, LASV entry inh -7%[46.1 µM], Marburg entry inh 30%[46.1 µM] and NS1 function inh 2%.
CCC(=O)NC1=C(Nc2ccc(N)cc2)C(=O)c2ccccc2C1=O was read as StopGo reporter 2%, SARS PLP yeast -5%, RE007 growth inh inconclusive, LASV entry inh -29%, Marburg entry inh inconclusive and NS1 function inh 7%.
O=C(COc1cccc2cccnc12)N1CCc2ccccc21 was read as StopGo reporter 46%[activator], SARS PLP yeast -1%, RE007 growth inh 4%, LASV entry inh 11%, Marburg entry inh 3%[46.1 µM] and NS1 function inh -6%.
Screening Cc1cc(C)cc(NC(=O)Cn2cc(C(=O)c3ccccc3)c(=O)c3ccc(C)nc32)c1 returned Cruzain inh noDet 2%, StopGo reporter -13%, Cruzain inh Det -0.3% and LASV entry inh 16%[46.1 µM].
For CCN(CC)CCNC(=O)c1ccc2c(c1)sc1nc(-c3ccc(F)cc3)cn12 the results were Cruzain inh noDet -4%, StopGo reporter 6%, Cruzain inh Det -1.2% and LASV entry inh 7%[46.1 µM].
`O=C(c1nn(-c2ccccc2)c(=O)c2ccccc12)N1CCN(c2ncccn2)CC1` gave StopGo reporter -20%, SARS PLP yeast -2%, RE007 growth inh 10%, LASV entry inh -15%, Marburg entry inh -16%[46.1 µM] and NS1 function inh -2%.
Cc1ccccc1Nc1c(F)c(F)c(F)c(F)c1C(=O)O was read as StopGo reporter -10%, SARS PLP yeast 0%, RE007 growth inh -19%, LASV entry inh 14%[46.1 µM] and Marburg entry inh -11%[46.1 µM].
For COc1ccc(/C(C)=N/Nc2nc(C)c(C(C)=O)s2)cc1 the results were StopGo reporter 10%, SARS PLP yeast 10%, RE007 growth inh 8% and NS1 function inh -2%.
